TsaE inh = qHTS Assay for Inhibitors of YjeE; tRNA threonylcarbamoyladenosine biosynthesis protein TsaE (Escherichia coli (strain …; purified YjeE, fluorescence polarisation of a bound ADP probe; Potency, µM; 0.05% of 71,000 active; AID 605, 2007; active = well fitted falling curve; inconclusive = weaker or top-dose-only fall, or a rising curve; inactive = flat or poorly fitted curve;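 further: top concentration of the series not given in the record; excess ADP was the control for the full effect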
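Purified YjeE (10 uM) with BODIPY Texas Red-labeled ADP probe (2 uM); compounds pin-transferred, 15 min at room temperature. Binding inhibition read as decreased fluorescence polarization; ADP titration as control.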
Bst PK mod = Pyruvate Kinase. Potency, µM. 1.2% of 51,000 active. AID 361, 2006. partly purified Bacillus stearothermophilus pyruvate kinase, luminescence ATP production; ribose 5-phosphate activator present at AC10; in the data active means potency below about 11 µM; inconclusive means mostly about 12 µM to 25 µM; inactive means weaker than that;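 the screen sought inhibitors and activators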;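 further: potency means the concentration at half of the fitted maximal effect; scaled between full activation by ribose 5 phosphate and full inhibition by luteolin; about four in five hits inhibit and the cells do not say which; series up to 57 µM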
Starred values were filed as active, the others as inactive.

For COC(=O)CN(C#N)c1nc(OC)nc(N(C)C)n1 the results were TsaE inh inactive and Bst PK mod >57.
For c1ccc(-c2ccccc2-c2nc(-c3cccnc3)no2)cc1 the results were TsaE inh inactive and Bst PK mod >57.
Screening O=C(NCc1ccc2c(c1)OCO2)c1cccc(C(=O)NCc2ccc3c(c2)OCO3)c1 returned TsaE inh inactive.
For CCc1cn([C@H]2C[C@H](O)[C@@H](CO)O2)c(=O)[nH]c1=O the results were Bst PK mod >25.6.
Screening OCCNCCCOc1cccc(Cl)c1Cl returned TsaE inh inactive.
For COc1ccccc1-c1ccc2ncnc(NC3CC3)c2c1 the results were TsaE inh inactive.
Cc1ccc(-c2nn(C)c(=O)c3ccccc23)cc1CNC(=O)CSc1nc2ccccc2o1 was read as Bst PK mod >25.6.
CCc1ncc(C(O)c2cccc(OC)c2OC)n1C (stereo not drawn) was read as TsaE inh inactive and Bst PK mod >57.
For CCOC(=O)N1CCN(C(=O)c2cc(S(=O)(=O)N3CCCC3)cn2C)CC1 the results were TsaE inh inactive and Bst PK mod >57.
For CC(C)CN(CC(C)C)C(=O)C12CCC(C)(C(=O)C1)C2(C)C (stereo not drawn) the results were TsaE inh inactive and Bst PK mod >57.
CC(C)(C)C(=O)NC1CCN(S(=O)(=O)c2ccccc2F)CC1 was read as TsaE inh inactive and Bst PK mod >57.
`CN1CCN(c2oc(-c3ccco3)nc2S(=O)(=O)c2ccccc2)CC1` gave TsaE inh inactive and Bst PK mod >57.
Screening Cc1cc(C(=O)CN(Cc2ccc(F)cc2)S(=O)(=O)c2ccc3c(c2)OCCO3)c(C)n1C returned TsaE inh inactive and Bst PK mod >57.
COc1ccc(NC(=O)C2CCN(C(=O)NCc3ccccc3)CC2)cc1 was read as TsaE inh inactive and Bst PK mod >57.
`COc1cc(CN2CC(C)OC(C)C2)cc(OC)c1` (stereo not drawn) gave TsaE inh inactive.
Screening CC(C)OC(=O)CSc1nnc(-c2ccco2)n1N returned TsaE inh inactive and Bst PK mod >57.
Screening O=S(=O)(c1ccccc1)N1CCN(S(=O)(=O)c2ccccc2)c2ccccc21 returned TsaE inh inactive.
For O=c1[nH]c2c(c3c1CCCC3)CCCC2 the results were TsaE inh inactive.
`O=C(c1csnn1)N1CCC[C@@]2(CCN(C(c3ccccc3)c3ccccc3)C2)C1` gave TsaE inh inactive.
CCCNC(=O)CS(=O)(=O)Cc1nc(-c2ccccc2C)oc1C was read as TsaE inh inactive.
Screening O=C(Cn1cc(C(=O)C2CC2)c2ccccc21)NCC1CCCO1 (stereo not drawn) returned TsaE inh inactive and Bst PK mod >57.
`COc1ccc(NC(=O)N2CC3(CCN(C(=O)c4c(C)noc4C)CC3)C2)cc1` gave TsaE inh inactive.
`COc1ccc(-n2c(Cc3cccn3C)nnc2SCC(=O)NCc2ccccc2Cl)cc1` gave TsaE inh inactive.
O=C(c1ccco1)N1CCN(C(=O)C2CCN(S(=O)(=O)c3cnc[nH]3)CC2)CC1 was read as TsaE inh inactive and Bst PK mod >57.
COc1ccc(C(=O)N2CCC3(CC2)CN(C(=O)Nc2cccc(C#N)c2)C3)cc1 was read as TsaE inh inactive.
CCOc1ccccc1C(=O)NCCCN1CCN(CCCNC(=O)c2ccccc2OCC)CC1 was read as TsaE inh inactive and Bst PK mod >57.
Screening COCCCN1C(=O)c2[nH]nc(-c3cc(C)cc(C)c3O)c2C1c1ccc(O)c(OC)c1 (stereo not drawn) returned TsaE inh inactive and Bst PK mod >57.
For Cc1ccc(Cl)cc1N1CCN(C(=O)CCC(=O)O)CC1 the results were TsaE inh inactive and Bst PK mod >57.
For CCOC(=O)C1CCCN(CC(=O)NC2CC2)C1 (stereo not drawn) the results were TsaE inh inactive and Bst PK mod >57.
`NS(=O)(=O)c1ccc(CCNC(=O)Nc2ccc(Cl)cc2)cc1` gave TsaE inh inactive.

Reprinted at random: 4 records from the list, in no set order.
`COc1ccc(NC(=O)N2CC3(CCN(C(=O)c4c(C)noc4C)CC3)C2)cc1` gave TsaE inh inactive.
Screening O=C(Cn1cc(C(=O)C2CC2)c2ccccc21)NCC1CCCO1 (stereo not drawn) returned TsaE inh inactive and Bst PK mod >57.
CCOc1ccccc1C(=O)NCCCN1CCN(CCCNC(=O)c2ccccc2OCC)CC1 was read as TsaE inh inactive and Bst PK mod >57.
CCCNC(=O)CS(=O)(=O)Cc1nc(-c2ccccc2C)oc1C was read as TsaE inh inactive.

(list continues)
Cn1cccc1C(=O)N1CCC2(CCN(C(=O)Nc3cccc(C#N)c3)CC2)CC1 was read as TsaE inh inactive.
For Cc1cnn(-c2nc(-c3cccs3)cc(C(F)(F)F)n2)c1 the results were TsaE inh inactive and Bst PK mod inconclusive.
Screening CCOC(=O)CN1C(=O)C(O)(CC(=O)c2ccccn2)c2ccccc21 (stereo not drawn) returned TsaE inh inactive.
`O=c1[nH]nnc2sc3c(c12)CCCC3` gave TsaE inh inactive and Bst PK mod >57.
Cc1cc(C)nc(-n2nc(C)c(C3(O)C(=O)Nc4ccccc43)c2N)n1 (stereo not drawn) was read as TsaE inh inactive and Bst PK mod >57.
`COc1ccc(Oc2ncc3nc(C)c(=O)n(C4CC4)c3n2)cc1` gave TsaE inh inactive.
`Cc1cc(C)n2nc(C(=O)OCCOc3ccc(Br)cc3)nc2n1` gave TsaE inh inactive and Bst PK mod >57.
For O=C(COC(=O)c1ccco1)NC1CCCCC1 the results were TsaE inh inactive and Bst PK mod >57.
Screening CCCn1nnnc1SCC(=O)N1CCOCC1 returned TsaE inh inactive and Bst PK mod >57.
`Cc1nc2ccccc2c(=O)n1NC(=O)C1CCCCC1` gave TsaE inh inactive and Bst PK mod >57.
Screening CCC(=O)N(Cc1cc2cc(OC)ccc2[nH]c1=O)c1ccc(C)cc1C returned TsaE inh inactive and Bst PK mod >57.
For N#CC(C(=O)OCc1ccccc1)c1nc2ccccc2nc1N1CCOCC1 (stereo not drawn) the results were TsaE inh inactive and Bst PK mod >57.
Screening CCOC(=O)c1sc(NC(C)=O)cc1C returned TsaE inh inactive.
Screening Cc1ccc(-c2noc(CCC(=O)NC3CCN(Cc4ccccc4)CC3)n2)cc1 returned TsaE inh inactive and Bst PK mod >57.
C/C=C(/C(=C/C)c1ccc(O)cc1)c1ccc(O)cc1 was read as Bst PK mod >11.4.
`CCCS(=O)(=O)N1CCCC(c2nc(-c3cccc(OC)c3)no2)C1` (stereo not drawn) gave TsaE inh inactive and Bst PK mod >57.
Screening CCCCCCNc1cc2n(c(=O)n1)CCc1cc(OC)c(OC)cc1-2 returned TsaE inh inactive and Bst PK mod >57.
For CC(C)CCNC(=O)C1CCN(C(=O)N(C)C)CC1 the results were TsaE inh inactive and Bst PK mod >57.
O=C(O)C1CC(=O)N(Cc2ccc3c(c2)OCO3)C1 (stereo not drawn) was read as TsaE inh inactive and Bst PK mod >57.
Screening O=c1[nH]c(CSc2nnc(-c3ccco3)n2-c2ccccc2)nc2sc3c(c12)CCC3 returned TsaE inh inactive and Bst PK mod >57.
`COC(=O)[C@@]1(Cc2ccc(F)cc2)[C@H]2c3cc(C(=O)N(C)C)n(CCc4c[nH]c5ccc(OC)cc45)c3C[C@H]2CN1C(=O)c1ccccc1` gave TsaE inh inactive.
Screening COc1cc(OC)cc(C(=O)Nc2ccc3c(c2)COC3=O)c1 returned TsaE inh inactive and Bst PK mod >57.
For CCSc1ncnc2c1oc1ccccc12 the results were TsaE inh inactive and Bst PK mod >57.
`CC(C)CC(=O)NC1(C(F)(F)F)C(=O)Nc2c1c(=O)n(C)c(=O)n2C` (stereo not drawn) gave TsaE inh inactive and Bst PK mod >57.
Cc1c(C(=O)NCC2CCCO2)oc2ccc(S(=O)(=O)N3CCCCC3)cc12 (stereo not drawn) was read as TsaE inh inactive.
`Cc1nc(C)c(C(=O)C2=C(O)C(=O)N(CCN(C)C)C2c2cccs2)s1` (stereo not drawn) gave TsaE inh inactive and Bst PK mod >57.
Screening COc1ccc(C(c2nnnn2CCc2ccccc2)N2CCN(C3CCCC3)CC2)cc1OC (stereo not drawn) returned TsaE inh inactive and Bst PK mod >57.
Screening O=C1C(C=NCC2CCCO2)=C(O)c2ccccc21 (stereo not drawn) returned TsaE inh inactive.
Cn1c(C(=O)NCCN2CCCCCC2)cc2c(=O)n(C)c3ccccc3c21 was read as TsaE inh inactive.
CCCC12CN3CC(C)(CN(C1)C3c1ccc(OC(C)C)cc1)C2=O (stereo not drawn) was read as TsaE inh inactive and Bst PK mod >57.
For O=C(Cc1ccsc1)NCC(c1ccco1)N1CCCCC1 (stereo not drawn) the results were TsaE inh inactive and Bst PK mod >57.
For COc1ccc(-n2cnnc2)cc1 the results were TsaE inh inactive and Bst PK mod >57.
`O=c1c(-c2ccc(Cl)cc2)nc2cnc(N3CCOCC3)nc2n1CCc1ccccc1` gave TsaE inh inactive.
Cc1c(C(=O)N2CC(C)OC(C)C2)sc2nc(-c3ccccc3)cn12 (stereo not drawn) was read as TsaE inh inactive and Bst PK mod >57.
Screening O=C(CN(c1ccc(F)cc1)S(=O)(=O)c1ccc2c(c1)OCCO2)NCc1ccccn1 returned TsaE inh inactive and Bst PK mod >57.
`CCc1ccccc1N(CC)C(=O)c1cn(C)c(=O)c2cc(OC)c(OC)cc12` gave TsaE inh inactive and Bst PK mod >57.
Screening CCCCNc1nc(C)nc2c1nc(-c1ccccc1)n2CCN1CCCC1 returned TsaE inh inactive.
`CCCCOCCCNS(=O)(=O)c1ccccc1` gave TsaE inh inactive.
For Cc1oc2cc(O)ccc2c(=O)c1N1C(=O)c2ccccc2C1=O the results were TsaE inh inactive.
`O=C(Nc1nccs1)C1CCN(S(=O)(=O)c2ccc3c(c2)OCCCO3)CC1` gave TsaE inh inactive and Bst PK mod >57.
Screening COC(=O)CSc1nnc(C)c(=O)[nH]1 returned Bst PK mod >25.6.
c1ccc(Cn2nnnc2C(c2cccs2)N2CCSCC2)cc1 (stereo not drawn) was read as TsaE inh inactive and Bst PK mod >57.
For c1ccc2c(c1)nc(N1CCN(C3CCCCC3)CC1)c1nnnn12 the results were TsaE inh inactive and Bst PK mod >57.
`Cn1c(NCc2cccnc2)nc2c1c(=O)n(Cc1ccccc1F)c(=O)n2C` gave Bst PK mod >25.6.
For Cc1cc(C(=O)COc2ccc(-c3nnco3)cc2)c(C)n1Cc1ccccc1 the results were TsaE inh inactive and Bst PK mod >57.
`O=C1NC(c2cc3c(cc2Cl)OCO3)Oc2ccccc21` (stereo not drawn) gave TsaE inh inactive and Bst PK mod >57.
Screening Cc1ccc(S(=O)(=O)NC(C)C(=O)NC2CCCCCC2)cc1 (stereo not drawn) returned TsaE inh inactive and Bst PK mod >57.
Cn1c2c(c(=O)n(C)c1=O)CN(Cc1ccc(F)cc1)CN2 was read as TsaE inh inactive and Bst PK mod >57.
`COc1ccc(CNC(=O)c2noc3c2CCCC3)cc1` gave TsaE inh inactive and Bst PK mod >57.
For Cc1onc(-c2c(F)cccc2Cl)c1C(=O)OCC(=O)Nc1c(C)n(C)n(-c2ccccc2)c1=O the results were TsaE inh inactive and Bst PK mod >57.
`COC(=O)C1C(=O)C2=C(CC1C)NC(=O)CC2c1ccccc1` (stereo not drawn) gave TsaE inh inactive and Bst PK mod >57.
Screening Cc1nn(C)c(C)c1S(=O)(=O)N1CCC(C(=O)NC2CCCc3ccccc32)CC1 (stereo not drawn) returned TsaE inh inactive.
CCOc1nc(-c2ccccc2)ccc1-c1noc(COC)n1 was read as TsaE inh inactive.
Cc1ccc(CCN2CC(C(=O)NCCCN3CCCCCC3)CC2=O)cc1 (stereo not drawn) was read as TsaE inh inactive and Bst PK mod >57.
For C=CCc1ccccc1OCC(CN1CCCCC1)OC(C)=O (stereo not drawn) the results were TsaE inh inactive and Bst PK mod >57.
`Nc1ncnc2c1ncn2[C@H]1O[C@@H](CO)[C@@H](O)[C@H]1N` gave TsaE inh inactive.
For O=C(Cc1ccc2cccnc2c1)c1ccc(O)cc1O the results were TsaE inh inactive and Bst PK mod 5.99*.
For CCCCn1cnc2c(cnn2-c2ccc(Cl)cc2)c1=O the results were TsaE inh inactive.
Screening N#CC1=C(SCC(=O)c2ccc(Br)cc2)NC2=C(C(=O)CCC2)C1c1ccco1 (stereo not drawn) returned Bst PK mod inconclusive.
`O=C(Nc1cccc(-c2nnc(-c3ccccc3)o2)c1)C1CCCO1` (stereo not drawn) gave TsaE inh inactive and Bst PK mod inactive.

3 successive entries already listed, for reference:
`O=C1NC(c2cc3c(cc2Cl)OCO3)Oc2ccccc21` (stereo not drawn) gave TsaE inh inactive and Bst PK mod >57.
Screening Cc1ccc(S(=O)(=O)NC(C)C(=O)NC2CCCCCC2)cc1 (stereo not drawn) returned TsaE inh inactive and Bst PK mod >57.
Cn1c2c(c(=O)n(C)c1=O)CN(Cc1ccc(F)cc1)CN2 was read as TsaE inh inactive and Bst PK mod >57.

Remaining list, next part:
For COc1ccccc1NC(=O)CSc1nnnn1C the results were TsaE inh inactive.
`C=CCn1c(=O)n(CCOC)c(=O)c2sc3ccccc3c21` gave TsaE inh inactive.
Screening CCn1c(=O)c2c(cnn2C)c2ccccc21 returned TsaE inh inactive and Bst PK mod inactive.
Screening O=C(O)C1CCN(c2nc(-c3ccccc3)nc3c2oc2ccccc23)CC1 returned TsaE inh inactive and Bst PK mod 7.37*.
Screening COc1ccccc1C(=O)n1nc(C)cc1C returned TsaE inh inactive.
CCC(C)NC(=O)C1CCC(=O)N(c2ccc3c(c2)OCO3)C1c1ccc(OC)cc1 (stereo not drawn) was read as TsaE inh inactive.
Screening NC(=O)c1c(NC(=O)CN2CCOCC2)sc2c1CCC2 returned TsaE inh inactive and Bst PK mod >11.4.
CCC(NS(=O)(=O)c1ccc(C)cc1)C(=O)O (stereo not drawn) was read as TsaE inh inactive and Bst PK mod >57.

High-throughput results: PubChem, National Center for Advancing Translational Sciences (NCATS)

This is a subset. The share of hits here may be higher or lower than overall.
